# Calb FLC: affects C. albicans growth with fluconazole | C. albicans CaCi-2 (fluconazole-resistant clinical isolate) + fluconazole, Alamar Blue growth, 48 h | growth inhibition, % (no concentration beside the values) | actives 0.57% (n = 300,000) | AID 1979;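 active = most replicates above 75%; inconclusive = exactly half above 75%; inactive = most below 75%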;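 also: all wells also contain fluconazole at 8 µg/ml as a sub-toxic cotreatment; 0% = median of DMSO wells and 100% = median of geldanamycin control wells; wells of about 8 µL received 7.5 nL stock; the first replicate is given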
# T cruzi inh: T. cruzi replication inhibition; actives 1.4% (n = 300,000); T. cruzi beta-gal in NIH3T3, luminescence, 90 h; inhibition, % (concentration not given with the values);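 active = mean inhibition across valid replicates above about 55%, limit read from the data; inconclusive = mean below that limit but half or more replicates reach it; inactive = mean below it, under half of replicates reach it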;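 also: signal also drops with host cell toxicity which is not excluded here; 0% = plate median of DMSO wells and 100% = zero luminescence signal; higher percent means less beta-gal luminescence so fewer parasites; stock transfer was 50 nL into about 50 µL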
# LANA-H2B inh: blocks KSHV LANA binding to histone H2A/H2B. AID 2629. inhibition, % (concentration not given with the values). actives 0.6% (n = 320,000). Q9QR71. cell-free LANA-H2A/H2B peptide, fluorescence polarization; in the data active = inhibition mostly above about 10%, no sharp cut-off; inactive = mostly below about 6.7%;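 also: stock transfer was 7.5 nL into about 10 µL; 0% = median of vehicle wells and 100% = median of positive control wells; one replicate is shown; the record names a cut of 25% in any replicate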
# UCH37 DUB inh: human UCH37 deubiquitinating enzyme inhibition; Q9Y5K5; purified proteasome/UCH37, Ub-AMC cleavage fluorescence; inhibition, % (test concentration not listed); actives 0.33% (n = 330,000); AID 588478;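 active = mean of two replicates above 20%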;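 also: 0% = compound-free wells with enzyme and 100% = wells lacking proteasome; stock transfer was 100 nL into about 20 µL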
# Target sequence (Q9Y5K5 whole entry, looked up): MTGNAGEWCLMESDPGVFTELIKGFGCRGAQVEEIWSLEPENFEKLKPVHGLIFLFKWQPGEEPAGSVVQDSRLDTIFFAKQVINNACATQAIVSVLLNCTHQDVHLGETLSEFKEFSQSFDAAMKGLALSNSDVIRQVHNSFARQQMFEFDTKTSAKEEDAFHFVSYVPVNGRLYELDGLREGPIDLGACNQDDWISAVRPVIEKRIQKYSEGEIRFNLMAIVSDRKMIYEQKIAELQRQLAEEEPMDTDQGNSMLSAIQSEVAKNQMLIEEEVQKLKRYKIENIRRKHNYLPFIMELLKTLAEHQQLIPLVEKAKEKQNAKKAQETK
#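 System: Proteasome-associated human UCH37 deubiquitinase; Input: 0.15 nM proteasome in added enzyme buffer; Also added: Ub-AMC substrate from 1 µM stock; Incubation: 30 min compound-proteasome preincubation then 25 min substrate reaction, room temperature; Detection: fluorescence, ex 355 nm, em 460 nm; Read-out: % inhibition of Ub-AMC cleavage fluorescence; Benchmarks: no-proteasome and no-compound wells.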
# B2AR ag: human beta-2 adrenergic receptor agonism by FAP; Am2.2-beta2AR cells, FAP receptor internalization, flow cytometry; reference of the scale not given here; AID 504454; actives 0.43% (n = 340,000); response, % (no concentration beside the values); P07550;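 active = response above a set limit, near 3 SD of response in nonfluorescent compounds, cut at about 42% in these data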;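 also: stock transfer was 100 nL into about 11 µL; a reference agonist was the positive control; negative values mostly stem from fluorescent compounds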
# Target sequence (P07550 whole entry, looked up): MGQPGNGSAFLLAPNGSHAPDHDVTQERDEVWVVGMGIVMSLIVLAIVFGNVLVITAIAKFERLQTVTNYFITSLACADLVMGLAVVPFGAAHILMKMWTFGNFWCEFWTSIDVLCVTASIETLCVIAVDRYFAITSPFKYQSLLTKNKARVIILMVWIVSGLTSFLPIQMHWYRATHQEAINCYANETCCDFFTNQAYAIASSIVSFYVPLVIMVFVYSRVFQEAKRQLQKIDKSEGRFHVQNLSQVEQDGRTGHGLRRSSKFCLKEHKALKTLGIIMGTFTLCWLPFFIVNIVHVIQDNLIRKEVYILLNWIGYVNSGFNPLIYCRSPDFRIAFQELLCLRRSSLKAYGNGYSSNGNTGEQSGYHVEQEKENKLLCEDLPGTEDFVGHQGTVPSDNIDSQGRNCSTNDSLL
# Beta cell apopt: beta cell apoptosis inhibition. INS-1E cytokine-induced death, ATP luminescence, 48 h; percent of positive-control rescue, neutral wells zero. protection from apoptosis, % (test concentration not listed). actives 0.8% (n = 300,000);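 active = all replicates at 75% or more, or half of them and the mean; inconclusive = half reach 75% but not the mean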;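 also: 0% = cytokine-treated negative control wells and 100% = positive control rescue; higher means more ATP so stronger rescue from cytokine killing; wells of about 40 µL received 100 nL stock; the first replicate is given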
# Bfl-1 A1 inh: inhibitors of the anti-apoptotic protein A1, read as caspase activation. MEF A1-2A-BIM cells, Caspase-Glo 3/7 luminescence, 3 h; percent of clofoctol response, vehicle zero. caspase activation, % (no concentration beside the values). AID 2462. actives 0.066% (n = 330,000);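 active = over half of replicate activation scores above 10%, or exactly half above 10 with the replicate mean above 10; inconclusive = replicate mean below 10 yet half the replicates above 10; inactive = over half of replicates below 10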;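 also: wells of about 30 µL received 50 nL stock; many hits fall short of the cut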
# RanGTP-Imp inh: inhibitors of RanGTP-importin-beta interaction, primary screen, biochemical, FRET, CFP-Ran, YFP-importin-beta, homogeneous; cell-free CFP-Ran/YFP-importin-beta FRET ratio; inhibition, % (test concentration not listed); actives 1.1% (n = 300,000);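 active = most replicates above 15%; inconclusive = exactly half above 15%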;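 also: 0% = DMSO wells and 100% = Ran loaded with GDP instead of GTP; wells of about 40 µL received 100 nL stock; the first replicate is given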
# An asterisk follows results filed as active; i = inactive; ? = inconclusive; · = no result given.
SMILES	Calb FLC	T cruzi inh	LANA-H2B inh	UCH37 DUB inh	B2AR ag	Beta cell apopt	Bfl-1 A1 inh	RanGTP-Imp inh
C[C@H](CO)N1C[C@H](C)[C@@H](CN(C)C(=O)Nc2ccc(F)cc2)Oc2ccc(NS(C)(=O)=O)cc2C1=O	·	·	-0.9	5.1	2	-3	-1.0	·
Cn1c(C(=O)NCCCN2CCN(c3ccccc3F)CC2)cc2c(=O)[nH]c3ccccc3c21	-31	14	1.5	1.1	0	3	1.2	-2.4
CCCN(CCC)CCNC(=O)c1cn(C)c(=O)c2c1c1ccccc1n2C	4	5	·	-63	-2	·	·	-1.1
O=C(NC1CC1)C1CCN(S(=O)(=O)c2cc(Cl)ccc2Cl)CC1	-8	-3	-13	1.4	-11	3	0.7	-0.3
COc1cc(C(=O)NCC(c2ccccc2)N(C)C)ccc1OCC(=O)N1CCOCC1 (configuration not stated)	40	-7	-1.5	-0.7	2	-4	0.2	0.1
CCN1CCN(C(=O)NS(=O)(=O)c2ccc(C)cc2)CC1	0	-10	·	-1.5	-1	·	·	1.0
OCCSc1nc(-c2ccccc2)nc2c1CCC2	3	-1	1.4	3.6	-2	-13	0.0	1.9
Cc1ccccc1NCC(=O)Nc1cc(S(=O)(=O)N2CCCCC2)ccc1C	·	·	4.2	0.8	14	1	-0.6	·
COCCCN1C(=O)c2ccc(C(=O)Nc3cccc(OC)c3)cc2C1=O	9	-2	0.2	0.8	3	-7	-5.2	-0.4
COc1ccccc1C(=O)N/N=C(\C)c1ccc(NC(=O)C2CC2)cc1	-2	9	2.7	·	8	-2	-1.1	0.0
CCOC(=O)c1ccc(S(=O)(=O)N2CCN(C3CCCC3)CC2)cc1	2	-13	-2.9	-0.7	-4	-3	0.1	-1.6
O=C(NCCN1CCN(C(=O)c2ccc([N+](=O)[O-])cc2)CC1)C(=O)NCc1ccccc1	·	-5	-2.7	0.3	3	0	0.6	2.6
O=C(CN1CCC(n2nnc3cc(C(F)(F)F)ccc32)CC1)Nc1ccc2c(c1)CCC2	-9	48	1.6	6.4	-7	3	-0.9	4.5
O=C(O)CNc1ccc(S(=O)(=O)C(F)(F)F)cc1[N+](=O)[O-]	-11	-20	5.4	2.9	-8	-5	-0.3	-1.9
COC(=O)Cc1c(C)nc2nc(NCc3cccc([N+](=O)[O-])c3)[nH]n2c1=O	0	-20	2.2	4.3	2	-7	0.0	1.7
CC1=CC(C)C(C[N+]2(C)CCCCC2)C(C)C1 (configuration not stated)	-30	-2	8.3	3.0	-1	1	0.3	2.8
CC(=O)N1CCCc2cc(S(=O)(=O)N3CCCC(C(=O)Nc4cc(C)ccc4C)C3)ccc21 (configuration not stated)	-1	-4	1.2	4.0	-7	-2	-0.7	8.3
Cc1ccc(Nc2nc(N)c([N+](=O)[O-])c(N3CCC(C)CC3)n2)cc1C	72	20	-3.3	0.0	17	3	-0.2	-3.1
O=C(N/N=C1\CCCc2c1[nH]c1ccc([N+](=O)[O-])cc21)c1ccncc1	-3	-10	6.0	·	·	-2	0.2	-1.7
Cc1ccc2nc(-c3ccc(NC(=O)COC(=O)c4ccc([N+](=O)[O-])o4)cc3)sc2c1	9	15	-0.6	-45	7	1	-4.7	0.6
CCCCN(CCCC)CCNC(=O)CSCc1ccc(C)cc1	4	22	-2.2	2.6	1	-3	-0.1	3.0
CNC(=O)C(NC(=O)CNC(=O)c1ccc(Cl)cc1)C(C)(C)C (configuration not stated)	-1	-22	1.2	1.9	-1	·	0.9	-2.2
Cc1cc2ncn(/N=C/c3ccc([N+](=O)[O-])s3)c2cc1C	-6	38	-2.5	·	-1	50	0.2	7.2
COC(=O)N/N=C(\C)c1ccccc1OC(F)F	0	-6	4.1	·	-1	-2	-1.6	-3.5
Cc1noc(C)c1NC(=O)Nc1cccc2c1O[C@H](CN(C)S(C)(=O)=O)[C@@H](C)CN([C@H](C)CO)C2=O	·	·	0.5	0.3	0	-1	1.2	·
COc1ccc(C(=O)Nc2ccc(N3CCN(C)CC3)cc2)cc1	5	3	8.6	1.8	10	2	0.0	3.5
CC(NC(=O)c1cccc(F)c1)C(c1cccs1)N1CCN(C)CC1 (configuration not stated)	-35	-4	-1.8	5.2	1	-1	-0.4	0.4
O=C(CCN1C(=O)/C(=C/c2ccc(F)cc2)SC1=S)NCCc1ccc(O)cc1	-8	-10	1.8	1.4	6	-20	-1.0	3.0
COc1ccc(C(C(=O)NCc2ccccc2)N(Cc2ccco2)C(=O)c2snc(C(N)=O)c2N)cc1 (configuration not stated)	45	8	3.3	-27	15	0	-0.4	-0.2
CC(C)N(C(=O)COC(=O)c1ccc(Cl)c(S(N)(=O)=O)c1)C(C)C	-12	0	-1.0	0.8	-2	-3	0.6	9.1
O=S(=O)(c1ccc(Cl)c(Cl)c1)c1snnc1-c1ccccc1	95*	-22	·	1.7	18	·	·	-6.1
CCN(CC(=O)NCc1cccs1)C(=O)c1cccc(S(=O)(=O)N2CC(C)OC(C)C2)c1 (configuration not stated)	·	·	6.7	4.9	-1	-3	0.2	·
O=C1c2cccc(O)c2C(=O)c2c(O)cccc21	·	-6	-7.3	·	·	·	-1.0	-11
Cc1ccc(N2C(=O)Nc3ccccc3S2(=O)=O)cc1Cl	8	2	1.1	6.0	0	-5	0.4	-1.8
CCN(c1ccccc1)S(=O)(=O)c1ccc(Cl)c(C(=O)NCC2CCCO2)c1 (configuration not stated)	-7	3	2.6	4.8	3	0	-0.9	-1.6
FC(F)(F)c1cnc2c(-c3ccccc3)n[nH]c2c1	2	4	·	-85	-2	·	·	5.1
COc1cccc(OCC(Cn2c(C)nc3ccccc32)OC(C)=O)c1 (configuration not stated)	33	-26	-1.1	4.0	-1	1	0.0	-1.1
CCCc1cc(=O)[nH]c(SCC(=O)N(C)C2CCS(=O)(=O)C2)n1 (configuration not stated)	-5	-17	-1.8	-2.4	1	-1	0.9	2.5
COc1ccc(NC2CCCN(C(=O)CCCn3cncn3)C2)cc1 (configuration not stated)	1	-1	-1.4	·	-4	·	-0.2	0.1
O=C(CSc1ccc([N+](=O)[O-])cn1)Nc1ccc2c(c1)OCO2	-7	9	-2.2	5.1	-5	9	-0.6	-3.1
COCC(=O)N(Cc1cc2ccc(C)cc2[nH]c1=O)c1ccc(OC)cc1	15	-10	0.1	-0.1	-6	-8	0.4	2.6
Cc1ccc(C)c(NCCC#N)c1	-4	-3	1.5	1.7	-1	-5	0.5	-1.2
OC1CCN(c2cc(-c3ccccc3)nc3cc(-c4ccc(F)cc4)nn23)CC1	15	38	-1.6	-389	-5	9	0.5	2.9
O=C(CCc1nnc2n(Cc3ccc(F)cc3)c(=O)c3ccccc3n12)NCCCN1CCOCC1	2	4	-0.2	2.0	-16	1	0.9	0.5
CNc1nnc(-c2ccncc2)s1	-3	-2	-1.5	i	9	·	-0.8	0.8
CCC(C)(C)NC(=O)Cc1ccccc1OC	-2	-21	1.7	-1.0	-4	-1	1.0	3.2
CC(c1ccccc1)N1C(=O)c2ccc(C(=O)NCc3cccnc3)cc2C1=O (configuration not stated)	2	-7	-1.9	3.5	9	1	0.0	4.7
CCN(CC)S(=O)(=O)c1ccc(/C=C/C(=O)Nc2cccc(F)c2)cc1	2	34	1.7	4.1	12	8	-0.2	-2.6
Clc1ccc2c(c1)C1=C(C(c3ccncc3)O2)C(c2ccc(Br)cc2)n2ncnc2N1 (configuration not stated)	2	17	3.7	-2.7	-2	4	-0.1	8.9
COc1ccc(OC)c2[nH]c(=O)c(CCNS(=O)(=O)c3ccc(Cl)cc3)cc12	-1	19	-1.6	-5.7	12	-5	0.5	-0.7

# The list goes on.
SMILES	Calb FLC	T cruzi inh	LANA-H2B inh	UCH37 DUB inh	B2AR ag	Beta cell apopt	Bfl-1 A1 inh	RanGTP-Imp inh
CC1CN(c2nc3ccccc3nc2SCC(=O)Nc2cccc(C(F)(F)F)c2)CC(C)O1 (configuration not stated)	3	29	3.3	-12	3	3	-0.2	-3.3
COC(=O)c1cnn2c3c(c(C)nc12)CCCC3	3	2	1.1	-118	-12	-4	0.0	-1.1
O=C(CSc1nnc(Cc2ccccc2)o1)NC1CCCCC1	0	-5	3.2	3.8	-2	3	-0.3	?
CCOCN(C(=O)Cn1cnc2ccccc21)c1c(C)cccc1CC	-5	17	-0.5	-1.6	-1	-5	0.4	?
Cc1c(O)nc(SCC(=O)Nc2ccc3c4c(cccc24)CC3)n(-c2ccccc2)c1=O	14	-26	0.7	8.6	-2	-8	0.9	2.6
Cc1cc(F)ccc1N1CCC(N2CCN(CCC(C)C)C(CCO)C2)CC1 (configuration not stated)	-34	15	-0.7	1.6	0	9	0.7	?
COc1ccc(CNc2nc3ccccc3n2C)c(O)c1	-3	4	0.7	1.9	-19	-3	-8.3	1.1
Cc1ccc(OCC(=O)NC(=S)Nc2ccc(Br)cn2)cc1C	-6	4	-5.7	0.8	1	-4	0.2	-1.1
CCN(Cc1ccccc1)S(=O)(=O)c1cc(C(=O)NC(C)C2CC3CCC2C3)ccc1OC (configuration not stated)	1	-12	1.8	6.5	49*	15	-0.2	-1.6
CN1CCN(c2ncnc3scc(-c4ccccc4Cl)c23)CC1	7	-16	0.6	-2.4	-3	-21	0.5	3.5
CCCCCNC(=O)CN(c1ccc2c(c1)OCO2)S(C)(=O)=O	-21	2	2.1	4.9	4	-4	1.1	0.3
Cc1c(C(=O)N2CCOCC2)[nH]c2ccc(OCc3ccccc3)cc12	14	5	6.2	-5.2	-2	2	0.3	-8.1
CCN(CC)C(=O)Cn1cc(SCC(=O)NC)c2ccccc21	2	-8	-1.3	3.6	-7	-3	0.1	0.8
CCCOc1ccccc1Nc1nnc(C)c(=O)[nH]1	0	-3	2.6	1.7	-8	4	1.5	7.8
C=CCC1(CC=C)CCCN1C(=O)CC1C(=O)NCCN1Cc1cc(OC)cc(OC)c1 (configuration not stated)	-26	7	-5.3	1.0	6	-4	0.9	-2.6
Cc1ccc(O)c(-c2cc(C(F)(F)C(F)F)nc(-c3ccccc3)n2)c1	14	-6	-1.0	-0.8	-6	·	0.5	1.8
COc1ccc(CCNc2oc(Cc3cccc4ccccc34)nc2C#N)cc1OC	10	22	4.6	2.4	0	9	0.1	1.2
COc1ccccc1-c1nnc(NC(=O)c2ccc(S(=O)(=O)N(C)Cc3ccccc3)cc2)o1	·	·	-1.5	-232	·	6	0.8	·
Cc1ccc(CN2C(=O)c3ccccc3NC2c2cc(Br)ccc2O)cc1 (configuration not stated)	0	11	-11	-99	9	3	0.0	1.6
CCOC(=O)c1ccc(NC(=O)NC2CC3CCC(C2)N3Cc2nnnn2Cc2ccco2)cc1 (configuration not stated)	-2	30	-4.2	3.5	-16	6	-0.9	0.4
CCOC(=O)C1CCN(C(=O)c2cc3ccccc3oc2=O)CC1	-1	1	-0.9	2.8	8	0	0.1	-1.3
